PABP FP inh: blocks human PABP binding to poly(A) RNA; 1% of 290,000 active; P11940; fluorescence polarization; inhibition, % at 35 µM;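 active means 50% or more with normal probe brightness, or confirmed in later tests; inconclusive means above 50% with abnormal brightness, or retests that disagree; inactive means below 50% or failed in later tests; about a fifth of its hits are not listed in these tables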;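 further: calls also rest on retests at 20 µM and on dose response follow-up; controls were probe without protein and protein plus probe with vehicle; some compounds called inactive have numbers as strong as hits; many hits fall short of the cut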
CSC inhib: blocks cancer stem cells | cancer stem cell-like cells viability, luminescence | inhibition, % at 7.5 µM | 1.1% of 300,000 active | AID 2717;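 active means mean at 75% or more and at least half the replicates too; inconclusive means mean and replicates disagree; tested in HMLE shEcad cells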;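 further: 0% = median of negative and 100% = median of positive control wells; the first replicate is given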
Yeast UUG start: alters start codon recognition fidelity in yeast; 0.13% of 350,000 active; S. cerevisiae UUG-firefly luciferase reporter, luminescence/redox ratio; activity score, % at 18.7 µM;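 active means replicate mean at a twofold rise or more, about +100% in these data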;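 further: firefly luciferase made from a UUG start codon reports start codon fidelity; reporter light over untreated wells divided by growth signal over untreated wells; some hits fall short of that in this replicate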
MT1-MMP act inh: inhibitors of human MT1-MMP activation; AID 651647; 0.061% of 360,000 active; GFP/RFP ratio change, % at 20 µM; HT1080 RFP-PRO-GFP cells, GFP/RFP ratio fluorescence, overnight; percent of plate control window, DMSO zero; P50281;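 active means GFP/RFP ratio change of at least 30% with cell ATP level not reduced by more than half and red fluorescence within 50% of control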; further: strong numbers were not always called active
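Test system: HT1080 cells expressing an RFP-PRO-GFP fluorescent reporter construct / Compound dosing: single-point 20 µM compound, 1% DMSO / Schedule: cells overnight before dosing, compound overnight, 37 °C, 5% CO2 / Evaluation: GFP/RFP fluorescence ratio / Control set: DMSO and RFP-L50D-GFP cell wells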
eIF4H FP inh: inhibitors of RNA binding by human eIF4H; Q15056; eIF4H fluorescence polarization binding assay; inhibition, % at 35 µM; 0.94% of 290,000 active; AID 2012;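 active means 50% or more with normal probe brightness, or confirmed in later tests; inconclusive means above 50% with abnormal brightness, or retests that disagree; inactive means below 50% or failed in later tests; about a fifth of its hits are not listed in these tables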;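 further: calls also rest on retests at 20 µM and on dose response follow-up; 0% = protein and probe with vehicle and 100% = probe without protein; strong numbers were not always called active; many hits fall short of the cut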
Rce1 inhib: blocks yeast Ras-converting enzyme. Q03530. calls only. yeast membranes, quenched prenylated peptide cleavage fluorescence. 0.27% of 290,000 active;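 active means fall in fluorescence gain of 50% or more versus controls, with final raw signal at or below 3038400; inconclusive means same 50% fall but final raw signal above 3038400; inactive means fall in fluorescence gain under 50%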;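 further: plate controls were neutral control wells for no effect and wells lacking membranes for full effect; tested at 10 µM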
Target sequence (Q03530 whole entry, looked up): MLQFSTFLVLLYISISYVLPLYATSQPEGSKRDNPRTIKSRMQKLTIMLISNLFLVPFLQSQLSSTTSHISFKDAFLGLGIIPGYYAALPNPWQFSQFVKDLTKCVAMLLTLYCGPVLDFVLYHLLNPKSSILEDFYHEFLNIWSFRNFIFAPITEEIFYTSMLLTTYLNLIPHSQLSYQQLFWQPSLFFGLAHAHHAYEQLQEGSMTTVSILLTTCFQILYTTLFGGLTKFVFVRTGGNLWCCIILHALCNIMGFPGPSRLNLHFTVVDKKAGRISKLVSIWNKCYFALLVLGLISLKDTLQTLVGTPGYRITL
HIV Env fusion: blocks HIV Env-driven cell-cell fusion. 1.1% of 360,000 active. inhibition, % at 12.3 µM. HeLa-JRFL Env/CEM21 cell fusion, luciferase;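 active means mean replicate inhibition score of at least 50 and every replicate individually at or above 50; inconclusive means only one of the two criteria met; inactive means mean below 50 and not all replicates reaching 50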;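 further: 0% = plate neutral controls and 100% = maraviroc near 300 nM; one replicate is shown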
eIF4H FP inh retest: also measured in eIF4H FP inh; calls as there; inhibition, %; compound at 20 µM; confirmation average;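 mean of two retest wells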
PABP FP inh retest: second read-out of PABP FP inh, no call of its own (marks repeat the call); inhibition, %; compound at 20 µM; confirmation repeats;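 mean of two retest wells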
MT1-MMP act inh RFP: further read-out of MT1-MMP act inh, marked with its call; RFP signal change, %; measured here: RFP expression control read;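 0 = vehicle wells; hits needed this value within 50% of zero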
An asterisk follows results filed as active; i = inactive; u = inconclusive; x = not tested or not shown; & = joins results of further samples; [ ] = dose if it differs, or a comment.

SMILES	PABP FP inh	CSC inhib	Yeast UUG start	MT1-MMP act inh	MT1-MMP act inh RFP	eIF4H FP inh	Rce1 inhib	HIV Env fusion	others
C=CCOc1ccc(CNc2ccc3[nH]c(=O)[nH]c3c2)cc1	1	-8	x	0	-8	-6	i	0
CN(C)C(CNC(=O)CNC(=O)c1ccc2ccccc2c1)c1ccccc1 (stereo unspecified)	22	9	-8	-3	0	-8	i	14
CC(=O)NS(=O)(=O)c1ccc(N=c2ssc3c2-c2cc(C)c(C)cc2NC3(C)C)cc1	2	-4	3	5	-11	-7	i	x
Cc1csc(NC(=O)c2cn3ccccc3n2)n1	-1	28	-80	0	4	-5	i	51
O=[N+]([O-])c1cccc(-n2nnnc2CN2CCCCCC2)c1	-5	-3	-15	4	3	-5	i	6
COC(=O)c1cc(C#N)c(Oc2ccc(OC)cc2)nc1C	-9	-7	-15	2	4	-5	i	x
Cc1[nH]nc2c1C(c1cnn(C)c1)C(C#N)=C(N)O2 (stereo unspecified)	8	8	x	6	5	4	i	7
O=Cc1cn(CCC(=O)O)nc1-c1cccc2ccccc12	2	-2	x	1	1	-4	i	-5
Cc1ccc(C(=O)Nc2ccc(S(=O)(=O)NCc3ccco3)cc2)cc1	23	-1	-25	8	-2	21	i	-28
COCCCNC(=O)CN(Cc1ccccc1)S(=O)(=O)c1ccccc1	6	1	-7	-8	-1	-8	i	-5
CCCCCCC[C@@H](C/C=C/CCC(=O)O)OC	x	x	-3	0	-3	x	x	9
Cc1cc(C)nc(N2C(=O)CC(Cc3ccccc3)C2=O)n1 (stereo unspecified)	0	6	-13	-3	-1	-6	i	-69
CC(=O)Nc1cccc(NC(=O)CSc2nc3ccccc3o2)c1	4	2	x	4	6	-1	i	14
CCCOc1ccc(/C(O)=C2/C(=O)C(=O)N(CCCOC)C2c2ccncc2)cc1 (stereo unspecified)	3	0	-14	1	1	-2	i	x
O=C(CCN1CCCCC1)Nc1cccc(Cl)c1	-2	-9	-18	8	8	6	i	x
Cc1nn(Cc2ccccc2)c(Cl)c1/C=C/C(=O)OC(C(=O)NC(N)=O)C(C)C (stereo unspecified)	18	x	-20	0	-11	-5	i	-8
Cc1ccc(-c2cnc(C(O)c3ccc(Cl)c(Cl)c3)[nH]2)cc1 (stereo unspecified)	x	x	-2	4	7	x	x	0
C=CCNC1=C(Cl)C(=O)N(c2cccc(Cl)c2Cl)C1=O	-2	-9	x	4	3	-12	i	x
COc1ccc(NC(=O)c2ccc3ccccc3n2)cc1S(=O)(=O)Nc1ccccc1Cl	8	0	-9	12	1	-6	i	-5
CCCc1cc(=O)[nH]c(SCC(=O)c2cc(C)n(CCC)c2C)n1	-3	-3	-6	4	2	-1	x	x
CCCCn1c(=N)n(CCOc2ccc(C)cc2)c2ccccc21	3	12	x	-10	-10	2	i	-22
CCc1ccccc1Oc1nc(NCCOC)nc2cc(-c3ccccc3)sc12	x	x	-7	-4	-10	x	x	11
CC1CC(C)CN(c2oc(-c3ccco3)nc2C#N)C1 (stereo unspecified)	4	55	-18	2	2	7	i	11
CCN(C(=O)COC(=O)CNC(=O)c1sc2ccccc2c1Cl)C1CCCCC1	x	9	x	2	2	x	i	1
CC(C)CN1CCC(=O)N(CCOc2ccccc2)CC1	1	-10	-30	-2	2	10	i	-2
Clc1ccsc1-c1csc(-c2cccnc2)n1	-1	26	-20	1	1	-3	i	x
CCN(CC)CCOc1nnc(-c2ccc(OC)cc2)c2ccccc12	2	-5	-18	3	0	-2	i	11
CCN(CC)C(=O)c1cc(-c2ccc3c(c2)OCO3)on1	-4	-14	-24	0	2	1	i	-33
Oc1ccc(N=Cc2sc3ccccc3c2Cl)cc1	-14*	1	-35	14	12	105*	i	-16	eIF4H FP inh retest=74*;PABP FP inh retest=69*
COC(=O)c1cnn(-c2nc(-c3ccccc3)cs2)c1N	11	1	-8	-3	-2	1	i	-58

2 compounds drawn at random from those above:
SMILES	PABP FP inh	CSC inhib	Yeast UUG start	MT1-MMP act inh	MT1-MMP act inh RFP	eIF4H FP inh	Rce1 inhib	HIV Env fusion	others
CCN(CC)CCOc1nnc(-c2ccc(OC)cc2)c2ccccc12	2	-5	-18	3	0	-2	i	11
CCN(C(=O)COC(=O)CNC(=O)c1sc2ccccc2c1Cl)C1CCCCC1	x	9	x	2	2	x	i	1

Following part
SMILES	PABP FP inh	CSC inhib	Yeast UUG start	MT1-MMP act inh	MT1-MMP act inh RFP	eIF4H FP inh	Rce1 inhib	HIV Env fusion	others
CC(C)N(C(=S)Nc1cc(S(=O)(=O)N2CCOCC2)ccc1Cl)c1ccccc1	-2	0	-10	1	4	-2	i	-15
CCc1nnc(NC(=O)c2ccc3c(c2)C(=O)N(CC(C)C)C3=O)s1	7	x	x	x	x	-3	i	-6
Cc1ccc(OCC(=O)NC(=S)Nc2cccc(NC(=O)c3ccccc3)c2)cc1	4	6	-9	8	11	-6	i	15
COc1cccc(CNc2ncn[nH]2)c1OCc1ccc(F)cc1	3	0	x	5	1	-1	i	8
O=C(Nc1cccc(NC(=O)c2ccccc2[N+](=O)[O-])n1)c1ccccc1[N+](=O)[O-]	-4	5	-15	5	3	12	i	x
CCn1c(SCC(=O)Nc2ccccc2)nnc1C1CCCCC1	-2	-4	x	-1	-1	1	i	x
O=C1C(C=NCc2ccco2)=C(O)c2ccccc21	9	-2	-33	-1	-5	6	i	x
CCn1c(-c2sc(-c3ccccc3)nc2C)n[nH]c1=S	-10	11	x	1	0	-5	i	28
O=C(CNC(=O)c1ccccc1F)OCC(=O)c1ccc(Cl)s1	-1	-4	-12	-3	3	3	i	-1
CS(=O)(=O)c1cccc(C(=O)OCCCC(=O)c2ccccc2)c1	x	-5	-15	0	0	x	x	0
O=C(CSc1nnnn1C1CCCCC1)N1CCc2ccccc21	-11	-10	-6	3	0	-14	i	x
CC(=O)c1ccc(N2CCN(C(=O)c3nn(C)c4c3CS(=O)(=O)c3ccccc3-4)CC2)cc1	-2	-1	-14	3	2	9	i	-5
CN1CCc2nc3sc(C(=O)NCc4ccccc4)c(N)c3cc2C1	-4	31	-12	-5	-3	u	x	-14
CC1=CC(C)C(COC(=O)CN2CCCCC2)C(C)C1 (stereo unspecified)	-7	-9	x	2	1	-10	i	-8
COCCNC(=O)C(=O)Nc1cccc(Br)c1	-1	2	-41	8	7	-1	i	x
CC1=C(C(=O)Nc2ccccc2C)C(c2ccc(C)o2)N2C(=O)CSC2=N1 (stereo unspecified)	5	x	0	0	4	-1	i	x
CCc1nc(OCc2ccccc2)c2sc3nc4c(cc3c2n1)COC(C)(C)C4	10	x	-23	9	-12	-4	i	14
Cn1cccc1C1NC(=O)c2c(sc3c2CCC(C(C)(C)C)C3)N1 (stereo unspecified)	16	-11	5	-1	-2	1	i	13
CC(C)(C)CC(=O)Nc1nnc(CCc2ccccc2)s1	-2	-10	-9	2	-2	-7	i	-75
Cn1c(O)c(N=NC(=O)CNC(=O)c2ccccc2)c2cc(Br)ccc21	15	5	-10	-6	-4	6	i	-8
CCS(=O)(=O)N1CCC(C(=O)Oc2ccc(Cl)cc2)CC1	-4	5	1	-3	2	-13	i	-16
O=C(Nc1nnc(-c2ccco2)s1)C1CCN(S(=O)(=O)c2ccc(Cl)cc2)CC1	1	15	-22	-8	-7	15	i	x
CCOc1ccc(S(=O)(=O)Nc2ccc3c(c2)OCO3)cc1	5	-10	x	1	-7	-3	i	23
CC(C)(C)OC(=O)C[C@H]1C/C=C\C[C@@H](CC(=O)N[C@@H](CO)Cc2ccccc2)C(=O)N2CCC[C@@H]2COC1=O	x	x	7	5	3	x	x	-11
Cc1cc(C)c(C(=O)COC(=O)c2cccc(S(=O)(=O)NCc3ccccc3)c2)cc1C	-2	x	5	-5	-6	-3	i	25
Cc1cc[n+]2cc(-c3cccc([N+](=O)[O-])c3)c(-c3cccc([N+](=O)[O-])c3)cc2c1	-8	0	-3	-2	6	15	i	-4
COc1ccccc1C1(O)CCN(CC(=O)Nc2c(C)nn(C)c2C)CC1	-7	x	-20	8	2	14	i	21
COc1cccc2c1OC1(C)CC2NC(=O)N1Cc1ccccc1 (stereo unspecified)	-1	-1	4	-5	1	-2	x	-4
CN(C)CCNC(=O)Nc1ccc(Cl)c(Cl)c1	-5	6	-18	-5	-1	1	i	7
Cc1ccc(OCCC(=O)OCC(=O)Nc2ccc(C)c(S(=O)(=O)N3CCOCC3)c2)cc1	x	x	0	-1	1	x	x	-25
COc1ccc(O)c(CN2CCN(C/C=C/c3ccccc3)CC2)c1	31	9	-12	1	-2	0	i	x
Cn1cc(C(=O)NCC2COc3ccccc3O2)c(=O)c2cc(S(=O)(=O)N3CCCCC3)ccc21 (stereo unspecified)	-12	13	-18	-3	-8	-6	i	x
O=C(Nc1cccc(S(=O)(=O)N2CCCC2)c1)c1cc(=O)[nH]c2ccccc12	x	x	-7	0	1	x	x	4
CCOC(=O)c1ccc(NC(=S)N(CCCN2CCN(CC)CC2)Cc2cccs2)cc1	5	-4	x	3	1	-3	i	1
CC(C)C(C(=O)OCC(=O)c1ccccc1)N1C(=O)C2C3C=CC(C3)C2C1=O (stereo unspecified)	-5	2	0	0	-1	0	i	3
CCCN(CCC)c1ccc(C(O)c2nnc(-c3ccccc3)o2)cc1 (stereo unspecified)	-15	15	-20	5	6	7	i	-18
COC(=O)C1CCN(C(=O)NC(C)(C)C)CC1	-2	-13	-3	11	3	4	i	-41
C[C@H](CO)N1C[C@H](C)[C@@H](CN(C)C(=O)c2ccc(N3CCN(C)CC3)cc2)OCc2cnnn2CCCC1=O	x	x	-6&2&-4	0	6	x	x	9[16.7 µM]
COc1cccc(-c2nn(-c3ccccc3)cc2CN(C)Cc2ccon2)c1	4	-8	-9	-5	-3	-3	i	30
O=C(NC(c1ccc(-c2ccccc2)cc1)c1cnccn1)C1CCN(CCN2C(=O)c3ccccc3C2=O)CC1 (stereo unspecified)	x	x	-14	-2	-6	x	x	3
Oc1[nH]c2ccc(Br)cc2c1N=Nc1nn[nH]n1	16	-27	x	-13	-1	1	i	-27
Cc1ccccc1NC(=O)CSc1nc2ccccc2c2nc(CCn3cncc3C)nn12	-1	x	-10	1	2	-13	i	x
O=C(NC1CCCCCCC1)c1ccc(F)cc1	6	-7	-15	0	-1	-8	i	-39
Cc1ccc2cc(C#N)c(NCc3ccccc3)nc2c1	0	-9	x	-1	4	8	i	28
O=C(NCC1c2ccccc2CCN1C(=O)CN1CCOCC1)C1CCCCC1 (stereo unspecified)	-8	6	x	-8	3	-1	i	x
N#CC(C(=O)NCCc1ccccc1)c1nc2ccccc2nc1N1CCCCC1 (stereo unspecified)	11	19	-12	-2	1	36	i	x
Cc1ccccc1NC(=O)CSc1nnc2ccc(-c3ccncc3)nn12	x	-5	-17	-4	1	x	i	8
O=C1OCC2=C1C(c1ccc(F)cc1)CC(=O)N2c1ccc(F)cc1 (stereo unspecified)	-3	-10	x	2	3	6	i	x
CNCC(O)Cn1c2c(c3ccccc31)CCCC2 (stereo unspecified)	-9	x	x	-1	1	3	i	-8
CCN(CC)S(=O)(=O)c1ccc(N2CCOCC2)c(NC(=O)C(C)Oc2ccc(F)cc2)c1 (stereo unspecified)	x	-11	0	-6	-5	x	x	x
COCCNC(=O)C1CCCN(C(=O)c2ccc(F)c(C)c2)CC1 (stereo unspecified)	x	x	-9	-1	3	x	x	12

High-throughput results (PubChem)

Not all compounds are listed; the hit share may differ from the screen's.
